# Bioassay records deposited in PubChem BioAssay by National Center for Advancing Translational Sciences (NCATS).
# Menin MLL FP FL – qHTS Assay for Inhibitors Targeting the Menin-MLL Interaction in MLL Related Leukemias: Competition With Fluorescein Labeled MLL-derived Peptide; Fluorescence polarization, fluorescein-MLL peptide displacement from menin; FP activity change, % at 61.4 µM; 290,000 tested, under 10 active; AID 1766, 2009; inconclusive = falling polarisation curve, or a change in total fluorescence; inactive = total fluorescence flat and polarisation flat or rising; no compound was filed as active; the % refers to the polarisation; negative = inhibition;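 further: % of control where 0% means no effect; inhibitors lower the polarisation; unlabelled MLL peptide was the positive control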
# gsp agonist – qHTS for Agonist of gsp, the Etiologic Mutation Responsible for Fibrous Dysplasia/McCune-Albright Syndrome: qHTS. Potency, µM (highest dose often 76.9 µM), without a hit: top-dose activation (cAMP increase), actives largely listed as activators. 340,000 tested, 0.13% active. gsp mutant cells, cAMP HTRF, 30 min; control for the full effect not named in the record. AID 624287, 2012; active = well fitted activation curve with a large enough effect; inconclusive = small, poorly fitted or top-dose-only effect, or another doubt; inactive = no such curve, though single readings can be large or run the other way; cell line not stated here;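 further: phosphodiesterase inhibitor Ro 20-1724 added with compounds to block cAMP breakdown; potency means the concentration at half of the fitted maximal effect; nearly all actives have a fitted effect of over 60% in size; about a fifth of the inactives were tested at one dose only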
#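 Cells in DMEM/10% FBS with G418 were pretreated with compounds in DMSO plus […] (300 uM stock) for 30 min at 37C. cAMP was measured by HTRF (cAMP-d2 plus anti-cAMP antibody-K) after 30 min at room temperature.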
# gsp antagonist – qHTS for Antagonists of gsp, the Etiologic Mutation Responsible for Fibrous Dysplasia/McCune-Albright Syndrome: qHTS; 340,000 tested, 0.4% active; gsp-mutant cells, cAMP HTRF, 30 min; control for the full effect not named in the record; AID 624288, 2012; Potency, µM (highest dose often 76.9 µM), for the others: top-dose activity change, negative = inhibition, usual class: inhibitors; active = falling curve of any shape with a large fitted effect; inconclusive = falling curve, mostly with a smaller effect; inactive = flat or rising curve; cell line not stated here;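 further: intracellular cAMP measured with PDE inhibitor Ro 20-1724 present during compound exposure; potency means the concentration at half of the fitted maximal effect; on the % scale 0 is the no-effect control and ±100 the full control effect; nearly all actives have a fitted effect of over 65% in size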
#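 HTRF cAMP read-out (cAMP-d2 plus anti-cAMP antibody-K in lysis buffer, 30 min RT). Before lysis, cells are exposed to compounds with […] for 30 min at 37C in DPBS containing Ca/Mg, BSA and Tween 20.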
# TRPML1 agonist – qHTS for Agonists of the Human Mucolipin Transient Receptor Potential 1 (TRPML1). TRPML1-expressing cells, Ca2+ dye fluorescence, FDSS; host cell line not named in the record; reference of the full effect not given here. 410,000 tested, 0.12% active. activation, % (concentration not given with the values). Mucolipin-1 (Homo sapiens), Q9GZU1; in the data active = activation above about 50%; inconclusive = about 30% to 50%; inactive = below about 30%; further: 0% is about no effect; the text of the record puts the active cut at 80%
# Target sequence (Q9GZU1 whole entry, looked up): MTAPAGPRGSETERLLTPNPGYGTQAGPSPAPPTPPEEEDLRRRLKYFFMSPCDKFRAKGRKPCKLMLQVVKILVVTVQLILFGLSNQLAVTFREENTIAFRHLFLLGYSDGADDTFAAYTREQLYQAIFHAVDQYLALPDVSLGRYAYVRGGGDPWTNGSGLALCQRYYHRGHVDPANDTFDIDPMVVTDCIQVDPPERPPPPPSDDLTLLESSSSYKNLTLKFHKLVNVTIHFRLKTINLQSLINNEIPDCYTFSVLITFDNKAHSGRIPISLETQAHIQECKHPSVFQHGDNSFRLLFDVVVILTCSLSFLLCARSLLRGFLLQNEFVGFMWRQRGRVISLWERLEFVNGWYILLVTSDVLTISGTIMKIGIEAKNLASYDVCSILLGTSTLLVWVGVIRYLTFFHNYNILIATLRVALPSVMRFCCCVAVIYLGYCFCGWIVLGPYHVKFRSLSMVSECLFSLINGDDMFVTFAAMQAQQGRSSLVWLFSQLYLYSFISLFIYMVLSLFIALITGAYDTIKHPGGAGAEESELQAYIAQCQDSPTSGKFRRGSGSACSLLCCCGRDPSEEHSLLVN
#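 TRPML1-DL cells, Tet-induced overnight (~16 h, 37 degrees C), loaded 45-90 min at room temperature with Ca8 no-wash calcium dye plus quencher. FDSS fluorescence: 10 s baseline, compound pin-transfer, 110 s agonist read, then EC80 54-4 (4uM final) and 110 s antagonist read.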
# ClpP mod – qHTS Assay for Activators of ClpP | ATP-dependent Clp protease proteolytic subunit (Bacillus subtilis (strain 168)), P80244 | purified B. subtilis ClpP, FRET peptide cleavage, 20 min | Potency, µM (highest dose often 57.5 µM), inactives show at the top dose activity change, negative = active | 340,000 tested, 1.9% active | AID 651965, 2013; active = well fitted falling curve with a large enough effect; inconclusive = small, poorly fitted or top-dose-only effect; inactive = no such curve, though single readings can be large or run the other way; further: potency means the concentration at half of the fitted maximal effect; the source files actives as falling curves though it sought activators and does not explain the sign; nearly all actives have a fitted effect of over 65% in size; many hits overshoot -100%
# Target sequence (P80244 whole entry, looked up): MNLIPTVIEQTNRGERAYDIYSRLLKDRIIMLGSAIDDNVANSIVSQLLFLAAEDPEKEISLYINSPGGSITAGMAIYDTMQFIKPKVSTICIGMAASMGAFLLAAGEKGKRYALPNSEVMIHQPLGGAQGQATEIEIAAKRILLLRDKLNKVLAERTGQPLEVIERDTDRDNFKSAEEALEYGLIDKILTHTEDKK
#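 FRET quenching reversal measured ClpP activation: 10 microg/mL B. subtilis ClpP at pH 8 with the FRET-FV decapeptide, read at 430 nm after 320 nm excitation. The 20-min minus 0-min signal was scaled between DMSO/no-enzyme wells and ADEP (5.8 microM final).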
# TRPML1 blocker – qHTS for Inhibitors of the Human Mucolipin Transient Receptor Potential 1 (TRPML1); activity change, negative = inhibition, % (concentration not given with the values); AID 624415, 2012; 390,000 tested, 0.02% active; TRPML1-inducible cells, Ca2+ dye fluorescence, FDSS; active compounds read low; inhibition of EC80 agonist-evoked calcium signal; in the data active means activity change below about -50%; inconclusive means about -30% to -50%; inactive means above about -30%;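 further: stimulus is agonist 54-4 at its EC80 concentration; on the % scale 0 is the no-effect control and ±100 the full control effect; the text of the record puts the active cut at -80%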
#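 TRPML1-DL cells, Tet-induced overnight (~16 h, 37 °C) at 1,500 cells/well, were loaded with Ca8 no-wash dye plus quencher for 45-90 min at room temperature. Compounds were pinned during FDSS kinetic reading; agonist 54-4 at EC80 (4 uM final) then added.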
# * = called active by the depositor; ? = inconclusive; . = no result given; & = joins results of further samples; [ ] = remark or other dose. An unsorted share of the library; 2.1% or so of the library scored in one or more.
structure	TRPML1 blocker	Menin MLL FP FL	TRPML1 agonist	gsp agonist	ClpP mod	gsp antagonist
COC(=O)c1ccccc1NC(=O)CN1CCC(NC(=O)c2ccccc2C)CC1	1	-1.5	-0.6	24%	-2.4%	-22%
CC(CN1CCCC1)OC(=O)c1ccc(Cl)cc1Cl (stereo unspecified)	.	1.6	.	-14%	-0.1%	8%
CCCCNC(=O)c1cc2nc3c(c(C(F)(F)F)n2n1)CCc1ccccc1-3	14	-1.2	-0.1	?	68%	2%
COCCN(CC(=O)Nc1cccc(C)c1C)C(=O)c1ccc(-n2cccn2)cc1	9	.	3.8	23%	-0.4%	-4%
COc1ccc(NC(=O)CN2CCCN(Cc3ccc(Cl)cc3)S2(=O)=O)cc1Cl	-1	.	-0.1	.	-3.9%	.
CN(CC(=O)Nc1cccc2c1CCCC2)S(=O)(=O)c1ccccc1	4	-0.3	0.4	15%	-2.9%	0%
CC1(C(=O)N2CCN(Cc3ccccc3Cl)CC2)CC1(Cl)Cl (stereo unspecified)	7	1.3	-0.7	8%	-0.1%	-2%
O=C(c1ccc(CSc2nc3ccncc3n2Cc2ccccc2F)cc1)N1CCCCCC1	7	.	2.2	.	-5.6%	.
S=C(NNc1nc(Nc2ccccc2)nc(N2CCCCC2)n1)NC1CCCCC1	-6	0.8	1.4	22%[15.4 µM]	.	-5%
CN(C)C(CNC(=O)Cc1cccc(C(F)(F)F)c1)c1ccccc1 (stereo unspecified)	-1	1.1	-0.7	-4%[15.4 µM]	.	11%
Cc1ccc(Cl)cc1NC(=S)N(CCCN1CCN(C)CC1)Cc1cccs1	26	-4.1	2.2	-3%[15.4 µM]	.	3%
O=C(Cn1nc(C(=O)O)c2ccccc2c1=O)Nc1nc(-c2ccccc2)cs1	3	2.6	-0.4	-2%	2.0%	9%
CN1CCN(C(=O)C2=C[C@H](c3csc4ccccc34)C[C@H](OCc3ccc(CO)cc3)O2)CC1	10	-5.4	0.8	-18%	-1.5%	-10%
CCC(CC)c1nnc(NC(=O)Cc2cccs2)s1	11	9.2	1.1	-82%[inhibitor]	.	13%
Cc1cc(C)c(NC(=S)N(C)C)cc1C	57	1.8	-0.5	?	-0.3%	6%
Cn1cccc1Cc1nnc(SCC(=O)NC2CCCC2)n1CCc1ccccc1	0	4.2	0.9	-61%[inhibitor]	2.2%	-4%
COc1cc(CCc2ccccc2)c(C(=O)O)c(O)c1CC=C(C)C	2	.	-0.1	-44%	?	?
COc1ccc(N/C=C/C(=O)c2ccccc2)cc1	.	1.2	.	-18%	-1.1%	0%
CC(C)NC(=O)CSc1nc2ccccc2n1CC(=O)N1CCc2ccccc21	1	1.5	0.3	27%	-0.8%	5%
COc1ccc(N2CC(C)Cn3c2nc2c3c(=O)n(CCc3ccccc3)c(=O)n2C)cc1 (stereo unspecified)	-1	-2.2	0.2	-35%[inhibitor]	-15%	0%
CCOC(=O)c1c(NC(=O)CSc2nnc(-c3ccncc3)n2Cc2ccco2)sc(C)c1C	11	-0.2	4.7	-21%	-0.8%	-3%
CNC(=O)c1ccsc1NC(=O)CS(=O)(=O)c1ccccc1	15	.	0.8	-2%[15.4 µM]	-0.7%	7%
COc1ccc(S(=O)(=O)N2CCCC(C(=O)NCc3ccc(F)cc3)C2)cc1 (stereo unspecified)	8	2.4	-0.1	12%	.	2%
Cc1ccsc1/C=C(/C#N)C(=O)NCc1ccccc1	-14	5.0	-0.8	-16%	0.6%	13%
COc1cc(OC)c(NC(=O)c2cncn2-c2ccc(F)cc2)cc1Cl	0	-0.7	0.2	-20%	.	-11%
Cc1ccccc1NC(=O)Cc1nc(COC(=O)c2ccc(C(F)(F)F)cc2)cs1	2	.	-0.5	18%	-0.1%	3%
CCOC(=O)C(NC(C)=O)(Nc1ccc(S(=O)(=O)Nc2ncccn2)cc1)C(F)(F)F (stereo unspecified)	10	-4.2	0.2	-7%[15.4 µM]	.	-5%
Cc1csc2ncc(C(=O)N(Cc3ccccc3)c3ccccn3)c(=O)n12	-3	3.9	-0.2	-7%	-18%	3%
COC(=O)N1[C@H](Cc2ccccc2)C=C[C@]1(C)C(=O)O	-17	3.0&2.7	0.0	-3%	-4.8%	8%
COc1ccc2oc(C(=O)OCC(=O)N3C(C)CCCC3C)c(C)c2c1 (stereo unspecified)	49	0.2	0.6	29%	?	-13%
CCOC(=O)C1=C(CC)Nc2ccccc2N=C1NC(=O)c1ccc(OC)c(S(=O)(=O)N2CCOCC2)c1	32	.	1.6	5%	-0.1%	-15%
CC1=C(C(=O)N2CCOCC2)CC(CC(=O)NCC2CCCCC2)C(=O)N1Cc1ccc(F)cc1 (stereo unspecified)	2	.	-0.8	20%	2.4%	.
COc1ccc(NC(=O)CN(C)C(=O)c2ccc(COc3ccccc3)cc2)cc1	14	.	0.9	17%	-1.4%	-5%
CC1CCN(C(=O)c2[nH]cnc2C(=O)NCc2ccccc2)CC1	-7	.	-0.5	.	-0.5%	5%
Cc1c(C(=O)NCCc2ccc(S(N)(=O)=O)cc2)cccc1[N+](=O)[O-]	-3	-3.8	-0.3	-75%[inhibitor]	.	19%
CSc1ccccc1NC(=O)CN(C1CCCCC1)S(C)(=O)=O	-10	2.6	0.1	-8%	0.7%	0%
CCOC(=O)c1cnc2sc3c(n2c1=O)CCCC3	-7	?	0.8	15%	0.3%	5%[15.4 µM]
CC(C)(C)/C(Cn1cncn1)=N\OC(=O)Nc1ccc(Cl)cc1	9	4.5	-0.4	2%	.	6%
Cc1ccc(C)c(OCc2nc3ccccc3n2C)c1	14	.	2.2	.	-0.8%	.
NS(=O)(=O)c1ccc(CCNC(=O)COC(=O)c2ccc([N+](=O)[O-])o2)cc1	1	.	-0.7	-28%	.	7%
Cc1nc2scc(-c3ccccc3)c2c(=O)n1N	13	5.5	-1.0	3%	-3.1%	8%
O=C(O)C(Oc1ccc2ccccc2c1)c1ccccc1 (stereo unspecified)	-7	.	1.4	12%[15.4 µM]	.	-12%
COc1cc(C2NC(=S)NC3=C2CCc2ccccc23)cc(OC)c1OC (stereo unspecified)	26	-1.0	-0.5	9%[15.4 µM]	-0.5%	-28%
CCOC(=O)c1cnc(-n2nc(C)cc2C)nc1NNc1nc(-c2ccccc2)cc(-c2ccccc2)n1	7	4.1	0.8	7%	-1.6%	-1%
COC(=O)c1ccc(C(=O)OC)c(NC(=O)c2cccnc2)c1	22	-0.5	0.6	2%[15.4 µM]	-3.1%	3%
O=C(NC1(O)C(=O)c2ccccc2C1=O)c1ccccc1	-2	3.9	-1.6	16%	-0.7%	13%
O=C(O)Cc1sc(Nc2ccccc2)nc1-c1cccs1	1	13	0.5	19%	-4.4%	3%
Nc1nccc(/C=C/c2ccc(Cl)cc2)n1	2	-0.3	0.3	-6%[15.4 µM]	.	12%
CCCOc1ccc(/C=C/c2c([N+](=O)[O-])c(=O)n(C)c(=O)n2C)cc1	-1	1.5	0.5	-25%	3.5%	5%
O=C(NCCc1ccccn1)c1ccc(S(=O)(=O)N2CCCCCC2)cc1	0	4.8	-0.5	-21%	-0.8%	6%
O=C(O)COc1ccccc1/C=N/NC(=O)CNC(=O)c1ccco1	-26	.	-0.2	0%	-5.9%	18%
CC1(C)CC(C(=O)NCCC(c2ccccc2)c2ccco2)CCO1 (stereo unspecified)	0	1.3	-0.2	-13%[15.4 µM]	-0.2%	4%
CC(C)(C)c1cn(-c2ccc(Cl)cc2)c(=S)[nH]1	0	-2.7	-0.5	-12%	-1.9%	-2%
CCCC1CC(CSC(=N)N)OC1=O (stereo unspecified)	3	-1.8	-0.8	8%	0.7%	9%
Cc1ccc(-n2c3c(cc(C(=O)NCc4ccco4)c2=O)C(=O)CC(C)(C)C3)cc1	-5	5.2	1.3	-36%[inhibitor]	?	-12%
NC(=O)c1ccc2c(=O)n3c(-c4cc(Cl)c(N)c(Cl)c4)csc3nc2c1	-6	0.9	-0.7	15%	-23%	-5%
Cc1ccoc1C(=O)Nc1cccc(Oc2ccccc2)c1	-13	9.0	1.2	-3%	-2.1%	-4%
COc1ccccc1OCCCn1c(C2CC(=O)N(c3ccccc3Cl)C2)nc2ccccc21 (stereo unspecified)	8	.	0.6	.	-0.3%	.
CCOC(=O)CC(=O)c1cc(OC)c(OC)c(OC)c1	7	0.6	0.2	-29%	-7.0%	16%
COC(=O)c1cn(C(=O)c2cc(OC)cc(OC)c2)c2ccccc12	-7	0.8	1.1	-5%[15.4 µM]	-9.1%	4%

# Following part:
structure	TRPML1 blocker	Menin MLL FP FL	TRPML1 agonist	gsp agonist	ClpP mod	gsp antagonist
O=C(COc1ccccc1F)NNC(=O)c1cc(Br)ccc1Cl	-19	.	0.9	-22%	-0.2%	9%
CC(=O)Nc1sc2c(c1C(c1ccc(F)cc1)N1CCOCC1)CCCC2 (stereo unspecified)	-11	-0.5	6.2	-7%	-0.4%	-4%
CC1=[N+](CC(=O)NC(C)(C)C)CCc2ccccc21	6	4.8	0.5	-2%	-0.9%	1%
Cc1cccn2c(CNCCc3ccccn3)c(C(=O)N3CCOCC3)nc12	5	0.5	-0.1	2%	-9.1%	7%
Cn1c(=O)c2[nH]c(CSCc3ccccc3)nc2n(C)c1=O	-8	.	-0.1	12%	?	4%
COc1ccc2nc(NC(=O)CCn3cccc3)sc2c1	-18	3.4	2.6	-31%[inhibitor]	0.5%	-2%
Nc1c(C(=O)Nc2nccs2)sc2nc(-c3cccs3)cc(C(F)(F)F)c12	-2	?	23	23%	-15%	2%
Cc1ccccc1N/N=C/c1ccc(N2CCOCC2)cc1	12	3.5	0.5	-4%	-5.2%	-12%
Cc1cc(C)c(Cn2c(=O)n(CCC(=O)NCc3ccc4c(c3)OCO4)c(=O)c3ccccc32)c(C)c1	8	.	-0.2	.	-1.8%	.
